# Source: PubChem (Broad Institute)
# Ecoli rRNA inh – reduced GFP signal of wild-type E. coli, primary screen, bacterial rRNA inhibitor project, GFP/RFP fluorescence, OD600, single point; E. coli WT GFP vs humanized-ribosome RFP mutants, 24 h; active compounds read low; DMSO median 0, no signal -100; GFP signal change (wild-type ribosome), % (test concentration not listed); hit rate 1.6% among 350,000;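 active means significant combined selectivity score with lowered wild-type GFP, culture density cut under 30%, mutant RFP and density less affected; inactive means any of these conditions unmet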; further: one replicate is shown; some compounds called inactive have numbers as strong as hits
# FGF22 binding – binders of human FGF22 protein, primary screen, FGF22 synaptogenesis inhibitor project, biophysical, thermal shift, single point. Fibroblast growth factor 22 (Homo sapiens), Q9HCT0. calls only at 9.99 µM. recombinant FGF22 thermal shift, SYPRO orange fluorescence; percent of sucrose octasulfate shift, DMSO zero. hit rate 1.5% among 340,000;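 active means melting point raised past a set limit in the mean and every replicate; three in four hits are not shown here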
# Target sequence (Q9HCT0 whole entry, looked up): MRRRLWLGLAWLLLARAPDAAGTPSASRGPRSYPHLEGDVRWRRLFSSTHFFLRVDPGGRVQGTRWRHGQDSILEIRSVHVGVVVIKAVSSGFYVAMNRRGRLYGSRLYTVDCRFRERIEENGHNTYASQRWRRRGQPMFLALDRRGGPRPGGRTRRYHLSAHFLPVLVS
# Ecoli rRNA inh OD600 – further read-out of Ecoli rRNA inh, marked with its call; OD600 change, %; measured here: OD600 growth;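 optical density of the mix in the first replicate; 0 = DMSO median and -100 = no signal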
# Ecoli rRNA inh RFP – further read-out of Ecoli rRNA inh, marked with its call; RFP signal change, %; measured here: RFP humanized mutant strains;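 first replicate; 0 = DMSO median and -100 = no signal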
# The depositor's hits bear a star; i = inactive. Not all compounds are listed; the hit share may differ from the screen's.
SMILES,Ecoli rRNA inh,Ecoli rRNA inh OD600,Ecoli rRNA inh RFP,FGF22 binding
C[C@H](CO)N1C[C@H](C)[C@@H](CN(C)Cc2ccc3c(c2)OCO3)Oc2ccc(NS(=O)(=O)c3cccs3)cc2CC1=O,-2,-19,2.1,i
CCC(=O)N(C)C[C@H]1Oc2cc(-c3ccc(OC)cc3)ccc2S(=O)(=O)N([C@@H](C)CO)C[C@H]1C,-9,-13,0.3,i
Cc1ccc(S(=O)(=O)N(C)C[C@@H]2Oc3ccc(NC(=O)Nc4ccc5c(c4)OCO5)cc3C(=O)N([C@@H](C)CO)C[C@H]2C)cc1,-5,-9,0.9,i
O=C(c1ccccc1F)N1C[C@H]2[C@@H](c3ccccc31)[C@@H](CO)N2Cc1ccc2c(c1)OCO2,-9,-32,-2.6,i
COCC(=O)Nc1ccc2c(c1)[C@@H]1C[C@H](CC(=O)NCCc3ccccc3)O[C@@H](CO)[C@@H]1O2,-4,-1,-3.0,i
COc1ccc(CN(C)C[C@@H]2OCCCC[C@@H](C)Oc3ccc(NC(=O)Nc4ccccc4)cc3C(=O)N([C@H](C)CO)C[C@@H]2C)cc1,2,4,4.0,i
COCC(=O)N(C)C[C@@H]1Oc2cc(C3=CCCC3)ccc2S(=O)(=O)N([C@H](C)CO)C[C@H]1C,-2,-2,-1.3,i
C[C@H]1CN([C@@H](C)CO)S(=O)(=O)c2ccc(C#CC3CC3)cc2O[C@@H]1CN(C)CC1CCOCC1,-10,-42,13,i
CC(C)C(=O)Nc1ccc2c(c1)C(=O)N(C)[C@H]1CC[C@@H](CC(=O)Nc3ccccc3)O[C@H]1CO2,-2,-9,-3.3,i
CO[C@H](CN(C)S(=O)(=O)c1ccc(Cl)cc1)[C@H](C)CN(Cc1ccccc1Cl)[C@@H](C)CO,-2,-40,7.1,i
CNC[C@H]1Oc2ccc(NS(=O)(=O)c3ccc(Cl)cc3)cc2C(=O)N([C@@H](C)CO)C[C@H]1C,3,4,4.3,i
CO[C@H]1CN(C)C(=O)c2ccc(NC(=O)c3nc4ccccc4s3)cc2OC[C@H](C)N(Cc2cccnc2)C[C@@H]1C,-10,-22,8.0,i
O=C(C[C@H]1CC[C@@H]2NC[C@@H](O)COC[C@H]2O1)Nc1ccccc1,0,6,-2.4,i
C[C@H]1CN([C@@H](C)CO)C(=O)c2cc(NS(=O)(=O)c3ccc(Cl)cc3)ccc2O[C@H]1CN(C)Cc1ccc(Oc2ccccc2)cc1,3,-4,3.8,i
COC(=O)C[C@@H]1CC[C@H]2[C@H](COc3ccc(NS(=O)(=O)c4ccc(C)cc4)cc3C(=O)N2C)O1,-2,0,3.2,i

# Shown with two lines to a compound: part of the list above.
# Value order: Ecoli rRNA inh, Ecoli rRNA inh OD600, Ecoli rRNA inh RFP, FGF22 binding
- COCC(=O)Nc1ccc2c(c1)[C@@H]1C[C@H](CC(=O)NCCc3ccccc3)O[C@@H](CO)[C@@H]1O2
→ -4, -1, -3.0, i
- COc1ccc(CN(C)C[C@@H]2OCCCC[C@@H](C)Oc3ccc(NC(=O)Nc4ccccc4)cc3C(=O)N([C@H](C)CO)C[C@@H]2C)cc1
→ 2, 4, 4.0, i
- COCC(=O)N(C)C[C@@H]1Oc2cc(C3=CCCC3)ccc2S(=O)(=O)N([C@H](C)CO)C[C@H]1C
→ -2, -2, -1.3, i
- C[C@H]1CN([C@@H](C)CO)S(=O)(=O)c2ccc(C#CC3CC3)cc2O[C@@H]1CN(C)CC1CCOCC1
→ -10, -42, 13, i
- CC(C)C(=O)Nc1ccc2c(c1)C(=O)N(C)[C@H]1CC[C@@H](CC(=O)Nc3ccccc3)O[C@H]1CO2
→ -2, -9, -3.3, i
- CO[C@H](CN(C)S(=O)(=O)c1ccc(Cl)cc1)[C@H](C)CN(Cc1ccccc1Cl)[C@@H](C)CO
→ -2, -40, 7.1, i
- CNC[C@H]1Oc2ccc(NS(=O)(=O)c3ccc(Cl)cc3)cc2C(=O)N([C@@H](C)CO)C[C@H]1C
→ 3, 4, 4.3, i
- CO[C@H]1CN(C)C(=O)c2ccc(NC(=O)c3nc4ccccc4s3)cc2OC[C@H](C)N(Cc2cccnc2)C[C@@H]1C
→ -10, -22, 8.0, i
- O=C(C[C@H]1CC[C@@H]2NC[C@@H](O)COC[C@H]2O1)Nc1ccccc1
→ 0, 6, -2.4, i
- C[C@H]1CN([C@@H](C)CO)C(=O)c2cc(NS(=O)(=O)c3ccc(Cl)cc3)ccc2O[C@H]1CN(C)Cc1ccc(Oc2ccccc2)cc1
→ 3, -4, 3.8, i
- COC(=O)C[C@@H]1CC[C@H]2[C@H](COc3ccc(NS(=O)(=O)c4ccc(C)cc4)cc3C(=O)N2C)O1
→ -2, 0, 3.2, i

# (further entries)
SMILES,Ecoli rRNA inh,Ecoli rRNA inh OD600,Ecoli rRNA inh RFP,FGF22 binding
CC(=O)N(C)C[C@H]1Oc2ncc(-c3cccc(C#N)c3)cc2C(=O)N([C@H](C)CO)C[C@H]1C,1,14,-3.5,i
CCN1[C@@H]2c3ccc(-c4cccnc4)c(=O)n3C[C@@H]2[C@@H](CO)[C@@H]1C(=O)NC1CCCCC1,-1,-2,-3.8,i
CN(C)C(=O)C[C@H]1C[C@H]2c3cc(NC(=O)C4CCOCC4)ccc3O[C@H]2[C@@H](CO)O1,3,11,-1.9,i
C[C@H]1CN([C@@H](C)CO)C(=O)Cc2cc(NS(=O)(=O)c3cn(C)cn3)ccc2O[C@H]1CN(C)Cc1ccc(C(F)(F)F)cc1,2,-3,-0.1,i
CO[C@H]1CN(C)C(=O)c2ccc(NC(=O)Nc3ccccc3Cl)cc2OC[C@@H](C)NC[C@H]1C,-1,2,1.4,i
COc1cccc(C#Cc2cnc3c(c2)C(=O)N([C@@H](C)CO)C[C@@H](C)[C@@H](CN(C)C(C)=O)O3)c1,-2,6,-1.2,i
C[C@@H]1CN([C@H](C)CO)C(=O)c2cccc(NC(=O)C3CC3)c2O[C@H]1CN(C)S(=O)(=O)c1ccccc1,2,2,-2.8,i
CCCNC(=O)N(C)C[C@H]1Oc2ncc(-c3ccccc3)cc2C(=O)N([C@@H](C)CO)C[C@H]1C,0,1,-1.3,i
O=C(C[C@H]1CC[C@@H]2[C@H](COC[C@H](O)CN2Cc2ccc(Oc3ccccc3)cc2)O1)N1CCN(c2ccccc2)CC1,-15,-41,20,i
COc1cccc(CN2[C@@H]3CN(C(=O)C4CC4)c4ccccc4[C@@H]3[C@@H]2CO)c1,-4,-10,2.7,i
COc1ccc2c3c(n(C)c2c1)[C@@H](CO)N(C(=O)c1cnccn1)CC31CN(C(C)=O)C1,5,4,-1.7,i
C[C@@H]1CN([C@@H](C)CO)S(=O)(=O)c2ccc(C#C[C@@H](C)O)cc2O[C@@H]1CN(C)C(=O)C1CCCCC1,1,1,-0.8,i
COc1ccc(S(=O)(=O)N(C)C[C@H]2OCCCC[C@@H](C)Oc3ccc(N(C)C)cc3C(=O)N([C@@H](C)CO)C[C@H]2C)cc1,-5,-7,3.4,i
CO[C@H]1CN(C)C(=O)c2ccc(NC(C)=O)cc2OC[C@@H](C)N(C(=O)C2CCOCC2)C[C@@H]1C,1,3,-1.4,i
C[C@H](O)C#Cc1cnc2c(c1)C(=O)N([C@@H](C)CO)C[C@H](C)[C@@H](CN(C)CC1CCOCC1)O2,-1,2,-1.8,i
O=C(C[C@H]1CC[C@@H](NS(=O)(=O)c2ccccc2)[C@H](CO)O1)N1CCC(Cc2ccccc2)CC1,-6,-21,42,i
C[C@H](CO)N1C[C@H](C)[C@H](CN(C)CC2CCCCC2)OCc2cn(nn2)CCCC1=O,2,3,-1.5,i
CN1C[C@@H](O)COC[C@H]2O[C@@H](CC(=O)N3CCN(c4ccccc4)CC3)CC[C@@H]21,-4,-10,-6.8,i
C[C@@H]1CCCCO[C@@H](CN(C)C(=O)Nc2ccc(C(F)(F)F)cc2)[C@H](C)CN([C@@H](C)CO)C(=O)c2cc(NS(=O)(=O)c3ccc(F)cc3)ccc2O1,1,-5,-1.5,i
Cc1noc(C)c1NC(=O)N(C)C[C@@H]1Oc2ccc(NC(=O)C3CCCCC3)cc2CC(=O)N([C@H](C)CO)C[C@H]1C,0,4,-1.8,i
C[C@@H](O)C#Cc1ccc2c(c1)O[C@H](CN(C)C(=O)CN(C)C)[C@@H](C)CN([C@@H](C)CO)S2(=O)=O,5,1,-4.2,i
Cc1ccc(S(=O)(=O)N(C)C[C@H]2Oc3ccc(NS(C)(=O)=O)cc3C(=O)N([C@H](C)CO)C[C@H]2C)cc1,2,13,-2.8,i
CCCNC(=O)N1CC2(CCN(S(=O)(=O)CC)CC2)c2c([nH]c3cc(OC)ccc23)[C@@H]1CO,-1,2,0.2,i
CC(C)NC(=O)N1CCCCN2[C@H](CO)[C@@H](c3ccc(Br)cc3)[C@H]2C1,1,8,-4.6,i
Cc1noc(C)c1S(=O)(=O)Nc1ccc2c(c1)CC(=O)N([C@@H](C)CO)C[C@H](C)[C@H](CN(C)S(=O)(=O)c1ccccc1)O2,-2,5,-0.9,i
C[C@H]1CN([C@@H](C)CO)C(=O)c2cccc(NC(=O)CCCCCC(=O)Nc3ccccc3N)c2O[C@H]1CN(C)S(=O)(=O)c1ccccc1,-5,2,-1.7,i
C[C@@H]1CN([C@H](C)CO)C(=O)c2cccc(NC(=O)Nc3ccc(C(F)(F)F)cc3)c2O[C@H]1CN(C)CC1CC1,-2,-51,20,i
COCC(=O)N1CC2(CCN(Cc3ccc(Cl)cc3)CC2)c2c([nH]c3cc(OC)ccc23)[C@H]1CO,0,-4,-1.6,i
CCNC(=O)C[C@@H]1CC[C@H]2[C@@H](COc3ccc(NC(=O)C4CCOCC4)cc3C(=O)N2C)O1,0,-1,-0.6,i
COc1cccc(-c2ccc3c(c2)O[C@H](CN(C)CC2CC2)[C@H](C)CN([C@H](C)CO)S3(=O)=O)c1,-5,-15,3.8,i
CCCN1C[C@@H](C)[C@@H](OC)CN(C)C(=O)c2ccc(NS(=O)(=O)c3ccccc3)cc2OC[C@@H]1C,-1,7,-1.3,i
Cc1ccc(S(=O)(=O)N(C)C[C@H]2OCCCC[C@H](C)Oc3ccc(NS(=O)(=O)c4ccc(Cl)cc4)cc3C(=O)N([C@H](C)CO)C[C@H]2C)cc1,0,-7,-2.4,i
C[C@@H]1CCCCO[C@@H](CN(C)Cc2ccc(C(F)(F)F)cc2)[C@H](C)CN([C@H](C)CO)C(=O)c2cc(NC(=O)CCCN(C)C)ccc2O1,2,0,4.4,i
CCCC(=O)N1CC2(C1)CN(C(=O)C1CCCCC1)[C@@H](CO)c1[nH]c3cc(OC)ccc3c12,0,9,-3.0,i
Cc1ccc(S(=O)(=O)N[C@H]2CC[C@@H](CC(=O)NCCN3CCCCC3)O[C@@H]2CO)cc1,4,4,0.0,i
O=C(Nc1ccccc1)N1CCCCN2[C@H](CO)[C@@H](c3ccc(-c4ccccc4F)cc3)[C@@H]2C1,-54,-69,-14,i
C[C@H]1CN([C@@H](C)CO)C(=O)c2cc(NS(=O)(=O)c3ccc(F)cc3)ccc2O[C@@H]1CN(C)Cc1ccc(C(F)(F)F)cc1,1,6,0.1,i
Cc1cccc(S(=O)(=O)N(C)C[C@H]2OCc3cnnn3CCCC(=O)N([C@@H](C)CO)C[C@@H]2C)c1,-1,0,-0.4,i
CCCNC(=O)N1[C@@H](CO)[C@@H](c2ccccc2)C12CN(C(=O)CC)C2,1,5,-1.1,i
COc1ccc(-c2ccc3c(c2)[C@H]2[C@H](CCN2S(=O)(=O)c2ccccc2C)[C@H](CO)N3C)cc1,5,7,-1.9,i
Cc1noc(C)c1NC(=O)N(C)C[C@H]1Oc2c(NC(=O)CCCCCC(=O)Nc3ccccc3N)cccc2C(=O)N([C@H](C)CO)C[C@@H]1C,2,9,-1.2,i
COc1cccc(-c2cnc3c(c2)C(=O)N([C@@H](C)CO)C[C@H](C)[C@H](CN(C)C(=O)CN(C)C)O3)c1,4,7,-2.0,i
C/C=C/c1ccc2c(c1)O[C@@H](CN(C)C(=O)c1cccc(F)c1)[C@H](C)CN([C@@H](C)CO)S2(=O)=O,-5,-12,2.9,i
COc1ccc(NC(=O)Nc2cccc3c2O[C@H](CN(C)C)[C@H](C)CN([C@@H](C)CO)C3=O)cc1,-2,-9,-1.2,i
CC(C)NC(=O)N(C)C[C@H]1OCCCC[C@H](C)Oc2ccc(NC(=O)C3CCCCC3)cc2C(=O)N([C@@H](C)CO)C[C@@H]1C,-3,-4,0.0,i
N#C[C@@H]1[C@@H](c2ccc(C3=CCCCC3)cc2)[C@H](CO)N1C(=O)Cc1ccncc1,1,-2,-0.6,i
COc1ccccc1S(=O)(=O)N(C)C[C@H]1Oc2cc(C#CCC3CCCC3)ccc2S(=O)(=O)N([C@@H](C)CO)C[C@H]1C,0,5,-2.2,i
CO[C@@H]1CN(C)C(=O)c2cc(NC(=O)C3CC3)ccc2OC[C@@H](C)N(CCC(F)(F)F)C[C@@H]1C,-1,-11,-0.4,i
CC(C)NC(=O)N(C)C[C@@H]1OCCCC[C@@H](C)Oc2ccc(NC(=O)Nc3ccccc3)cc2C(=O)N([C@H](C)CO)C[C@@H]1C,3,-2,0.7,i
COc1ccccc1C#Cc1cnc2c(c1)C(=O)N([C@H](C)CO)C[C@@H](C)[C@H](CN(C)C(=O)c1ccc3c(c1)OCO3)O2,-2,-6,-0.5,i
CC(C)NC(=O)Nc1ccc2c(c1)C(=O)N([C@@H](C)CO)C[C@H](C)[C@@H](CN(C)CC1CCCCC1)O2,2,7,-1.5,i
